Screening data: PubChem BioAssay, National Center for Advancing Translational Sciences (NCATS)
RE007 growth inh: less growth of the S. pombe RE007 Vpr strain; actives 0.21% (n = 360,000); S. pombe RE007 Vpr strain, BacTiter-Glo ATP luminescence, 24 h; control for the full effect not named in the record; AID 651644; Potency, µM (titrated, usually from 92.2 µM), for inactives: at the top dose activity change, negative = less growth; active = well fitted falling curve with a large enough effect; inconclusive = small, poorly fitted or top-dose-only effect; inactive = no such curve, though single readings can be large or run the other way;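 note: % is set by controls: 0 for no effect and ±100 for the full control effect; nearly all actives have a fitted effect of over 50% in size; the assay follows cell death caused by Vpr and the record does not say whether a fall means rescue or toxicity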
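Fission yeast RE007 carrying one integrated HIV-1 vpr copy, seeded at OD 0.01 in PMG+AL medium with 23 nL pinned compound. Grown 24 h at 30 degrees; viability read by BacTiter-Glo luminescence after 5 min.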
SARS PLpro yeast: SARS-CoV PLP inhibition in yeast; actives 0.19% (n = 330,000); Potency, µM (series often up to 32.9 µM), inactives show at the highest dose activity, positive = growth rescue; AID 485353; S. cerevisiae expressing SARS-CoV PLpro, growth rescue; control for the full effect not named in the record; active means well fitted rising curve with a large enough effect; inconclusive means small, poorly fitted or top-dose-only effect; inactive means no such curve, though single readings can be large or run the other way; note: 0% is about no effect; nearly all actives have a fitted effect of over 55% in size; growth read by luminescence after 48 h
2A StopGo: lowers the luciferase signal of an FMDV 2A StopGo reporter; Potency, µM (series often up to 57.9 µM), for inactives: at the top dose signal change, negative = less light; human cells with a luciferase reporter of 2A StopGo recoding; control for the full effect not named in the record; actives 1.2% (n = 410,000); AID 1159524; active = well fitted falling curve with a large enough effect; inconclusive = small, poorly fitted or top-dose-only effect; inactive = no such curve, though single readings can be large or run the other way; tested in HEK293T cells; note: % is set by controls: 0 for no effect and ±100 for the full control effect; nearly all actives have a fitted effect of over 45% in size; luciferase light after 4 h
An asterisk follows results filed as active; ? = inconclusive; [ ] = remark or other dose. Potency is the fitted concentration of half-maximal effect. The list is partial, so the mix of outcomes need not match the whole.

SMILES | RE007 growth inh | SARS PLpro yeast | 2A StopGo
COc1ccc(C2=NOC(Cn3nc(-c4ccccc4)cc3C(=O)NCc3cccc(C(F)(F)F)c3)C2)cc1 (stereo not given) | -5% | -3% | 8%
CN(C)S(=O)(=O)c1ccc(Cl)c(C(=O)NNC(=O)Cc2nc3ccccc3n2C)c1 | 2% | 1% | -19%
CCC(=O)N(Cc1ccco1)Cc1cc2cccc(C)c2n2nnnc12 | -1% | 0% | -13%
O=C(NCc1ccco1)C1CCN(S(=O)(=O)c2ccccc2C(F)(F)F)CC1 | 7% | 3% | -7%
C[C@]12c3[nH]c4cc(-c5ccco5)ccc4c3CCN1C(=O)[C@@H](CC(=O)NCCCn1ccnc1)C[C@@H]2C(=O)N1CCOCC1 | -3% | ? | -2%
CC1CCCCC12NC(=O)N(CC(=O)Nc1ccc3c(c1)OCCCO3)C2=O (stereo not given) | -7% | -1% | -7%
COc1cccc(N2CCN(C(=O)c3cc4c(s3)CCCCC4)CC2)c1 | -2% | 1% | 28%
CN(C)c1ccc(S(=O)(=O)N2CCCCC2)cc1NC(=O)C1CSC2(C)CCC(=O)N12 (stereo not given) | 3% | -4% | -23%
O=C(C[C@H]1C/C=C\C[C@@H](Cc2ccc(F)cc2)C(=O)O[C@@H](c2ccccc2)CNC1=O)NCCO | 2% | -3% | -4%
COc1ccc(Br)cc1S(=O)(=O)NCCc1cccs1 | -20% | -10% | 98%[activator]
CC(C)COc1cccc(C(=O)N(CC(=O)Nc2ccccc2C(F)(F)F)Cc2ccco2)c1 | -7% | -11% | -20%
CCC(C)CCN1CCN=C1Nc1ccccc1 (stereo not given) | -3% | -2% | -10%
C[C@H](CO)N1C[C@H](C)[C@@H](CN(C)S(=O)(=O)c2cccs2)Oc2c(NC(=O)Nc3ccccc3)cccc2C1=O | -12% | -7% | 7%
O=C(c1ccccc1OC(F)F)N1CCN(S(=O)(=O)c2ccc3c(c2)OCCCO3)CC1 | 0% | 1% | -23%
Cc1ccccc1C(=O)Nc1ccc(C(=O)N/N=C/c2ccc(F)cc2)cc1 | 5% | 3% | -15%
C=CC(=O)Nc1ccc(Nc2nc(NC3CCC(N(C)C)CC3)nc3c2ncn3C(C)C)cc1 (stereo not given) | 1% | 4% | -47%
COc1ccc(NC(=O)CSc2nnc(CNC(=O)COc3ccc(Cl)cc3)o2)cc1 | -3% | 0% | 0%
C#CCOCCOCCOCCNc1nc(N2CCN(C(=O)C([C@@H](C)O)n3cc([C@@H](N)CCCCN)nn3)CC2)nc(N2CCN(C(=O)[C@H](CCCCN)n3cc(CN)nn3)CC2)n1 (stereo not given in full) | 0% | -26% | -6%
COc1ccc(NS(=O)(=O)c2cc(NC(=O)CCNC(C)=O)ccc2N2CCCCC2)cc1 | -24% | -3% | 75%[activator]
O=C(NCCCO)C(=O)NCc1ccncc1 | 16% | 2% | -22%
COc1ccc(CNC(=O)CN(C)CC(=O)Nc2ccccc2Br)cc1 | 13% | 2% | -23%
Cc1nc2ccc(S(=O)(=O)NCC(=O)Nc3cccc(F)c3)cc2s1 | 12% | 5% | 19%
CCOc1ccc(NC(=S)NCCN2CCN(Cc3ccccc3)CC2)cc1 | -13% | -2% | -28%
Cc1ccc(S(=O)(=O)N2CCC(C(=O)NCC(C)(C)N3CCOCC3)CC2)c(C)c1 | -2% | 4% | -10%
O=C(O)CCn1cc(-c2ccc(F)cc2)nc1-c1ccncc1 | 5% | 3% | 6%
CCN(CC)C(=O)c1cccc(NC(=O)c2cc(C3CC3)nc3c2cnn3C(C)C)c1 | 3% | -4% | -22%
CC(C)(C)OC(=O)C[C@@H]1C/C=C\C[C@H](CC(=O)NCCO)C(=O)N2CCC[C@H]2COC1=O | -3% | 0% | -4%
CCCNC(=O)C(Cc1ccc(C(F)(F)P(=O)(OCC)OCC)cc1)NC(=O)c1ccc(C#N)cc1 (stereo not given) | 6% | -9% | -3%
CCN(C(=O)COC(=O)CCCOc1ccccc1)c1c(N)n(Cc2ccccc2)c(=O)[nH]c1=O | 4% | 6% | -17%
Cc1c(C)c2ccc(OCC(=O)N3CCN(Cc4ccccc4)CC3)cc2oc1=O | 2% | -7% | -15%
Cc1ccc(NC(=O)CN(C)C(=O)COC(=O)c2ccc(Cl)cc2O)cc1 | -4% | -2% | -18%
C[C@H](CO)N1C[C@H](C)[C@@H](CN(C)S(=O)(=O)c2cccs2)Oc2ccc(NC(=O)NC3CCCCC3)cc2C1=O | -4% | -3% | -13%
CCn1nc(C(=O)NCC2COc3ccccc3O2)c2ccccc2c1=O (stereo not given) | 8% | -2% | -28%
CN(Cc1ccc(CNC[C@H]2O[C@@H](n3cnc4c(N)ncnc43)[C@H](O)[C@@H]2O)o1)S(C)(=O)=O | -5% | -1% | -20%
Cc1ccc(C2/C=C\CC(NC(=O)OCC3c4ccccc4-c4ccccc43)CC(=O)N2Cc2ccccc2)cc1 (stereo not given) | -14% | 5% | -29%
Cc1noc(C)c1NC(=O)N(C)C[C@H]1Oc2ccc(NC(=O)Nc3ccc(C(F)(F)F)cc3)cc2C(=O)N([C@H](C)CO)C[C@@H]1C | -2% | 4% | -25%
CCCCNc1ccc2oc(-c3ccc(OC)cc3)c(-c3ccc(OC)c(F)c3)c2c1 | -14% | -1% | -17%
O=C(O)CCN(CC(=O)c1ccc(Cl)cc1)S(=O)(=O)c1ccc([N+](=O)[O-])cc1 | 5% | -2% | -7%
COc1ccc(C2CC(c3ccc(Cl)cc3)=NN2c2ccc(S(N)(=O)=O)cc2)cc1 (stereo not given) | 13% | 9% | 0%
CC(C)CN(C(=O)COC(=O)/C=C/c1ccccc1)C1CCS(=O)(=O)C1 (stereo not given) | -4% | -2% | -15%
O=C(CN(Cc1ccco1)C(=O)c1cccc(F)c1)Nc1ccccc1C(F)(F)F | 0% | 3% | -6%
CCCCN(C(=O)Cc1ccc2c(c1)OCCO2)c1c(N)n(CCC)c(=O)[nH]c1=O | 2% | 3% | -11%
CSc1nc(N)nc2c1ncn2CC(=O)N1CCN(Cc2c(C)cc(C)cc2C)CC1 | 4% | 1% | ?
CCN(C[C@H]1N[C@@](C)(C(=O)OC)[C@H]2C(=O)N(Cc3ccccc3)C(=O)[C@@H]12)C(=O)c1ccc(C(C)(C)C)cc1 | 2% | 0% | ?
CN(Cc1ccccc1)C(=O)c1cccc(NC(=O)C2CCCN(C(=O)OC(C)(C)C)C2)c1 (stereo not given) | 6% | -14% | ?
Cc1cc(NC(=O)CSCC(=O)N2CCN(c3cccc(C)c3C)CC2)no1 | -3% | 1% | -28%
Cc1cccc(NC(=S)NCC(C)CSc2ccc(Cl)cc2)c1 (stereo not given) | 24% | -16% | 70%[activator]
NC(=O)c1cc[n+](CC(=O)NC(=O)Nc2ccccc2)cc1 | -14% | -2% | 0%
COc1ccc(NS(=O)(=O)c2ccc(NC(=O)c3ccccn3)cc2)cc1 | -3% | -8% | -7%
O=C(Cn1cnc2c(OCc3ccccc3)ncnc21)NCc1ccccc1 | 6% | 12% | -11%

Remaining list, next part.
SMILES | RE007 growth inh | SARS PLpro yeast | 2A StopGo
O=S(=O)(c1ccc(N2CCN(Cc3ccccc3)CC2)nc1)N1CCCC1 | -6% | -2% | -28%
CNS(=O)(=O)c1ccc(C(=O)NCC(=O)NCCc2ccc3c(c2)OCCO3)cc1 | -10% | -8% | -6%
Cc1cc(C)c[n+](-c2[nH]c(=O)sc2/C=N/N=C(\N)[S-])c1 | 14% | -3% | 2%
COc1ccc(N2CCN(C(CNC(=O)C(=O)NCc3ccc4c(c3)OCO4)c3ccco3)CC2)cc1 (stereo not given) | 3% | 3% | -29%
COc1ccc(C(C#N)c2cnccn2)cc1OC (stereo not given) | -5% | 2% | 15%
Nc1ccn(CC(=O)NCc2ccc3c(c2)OCO3)c(=O)n1 | -18% | -1% | 8%
Cc1ccc(CNC(=O)c2ccc(N3CCC4(CC3)CC(c3ccccc3)=NO4)c(NC(=O)c3cccc(C)c3)c2)cc1 | 8% | 0% | -9%
CCN1C(=O)[C@H]2[C@@H](c3ccc(-c4ccc(F)cc4)cc3)N3CCCC[C@@]3(C(=O)OC)[C@H]2C1=O | -5% | 1% | -30%
Cc1ccc(C(=O)NCC(c2ccco2)N2CCCCC2)s1 (stereo not given) | -6% | 8% | 13%
CCC(CO)n1c(=S)[nH]c2cc(OC)c(OC)cc2c1=O (stereo not given) | 0% | -2% | -7%

Following part:
The line under a structure holds: RE007 growth inh	SARS PLpro yeast	2A StopGo
O=S(=O)(NCCN1CCOCC1)c1ccc2ccccc2c1
    6%	3%	40%[activator]
Cc1c(Cl)cccc1NC(=O)CNC(=O)Cc1c[nH]c2ccccc12
    -1%	1%	-11%
COc1ccc(N[C@@H]2CCN3C(=O)c4ccccc4[C@@H]3C[C@H]2O)cc1
    -12%	?	-6%
O=S(=O)(c1ccc(SCCOc2ccccc2Cl)nc1)N1CCCC1
    -19%	-3%	?
COc1ccc(CNC(=O)C[C@H]2C[C@H](C(=O)N3CCCCC3)[C@@]3(C)c4[nH]c5cc(CCC(=O)N(C)C)ccc5c4CCN3C2=O)cc1OC
    -2%	19%	-15%
O=C(Nc1ccc(Br)cc1)C1CCCN(S(=O)(=O)c2cccnc2)C1 (stereo not given)
    -18%	-2%	?
COc1cccc(/C=N/NC(=S)Nc2cccc(C(=O)O)c2)c1
    9%	0%	42%[activator]
CCN(CC(=O)NCc1cccs1)C(=O)c1cccc(S(=O)(=O)Nc2cccc(C)c2)c1
    -9%	-3%	63%[activator]
CCCn1c(N)c(C(=O)CSc2nnc(C3CC3)n2Cc2ccccc2)c(=O)n(C)c1=O
    -8%	-2%	-23%
CCCCOc1ccc(C(=O)NCC(=O)NCCCn2nc(C)cc2C)cc1
    -2%	-27%	-11%
CCN(CC)S(=O)(=O)c1ccc(C(=O)Oc2cc(C)[nH]c(=O)c2[N+](=O)[O-])cc1
    1%	0%	5%
COc1ccc([C@H]2Cc3cc(O)cc(O)c3C(=O)O2)cc1O
    4%	1%	-3%
CCC(=O)c1cc(F)ccc1OCC(=O)Nc1ccc2c(c1)OCCO2
    3%	8%	-7%
O=C1C2CCc3ccccc3C2N1c1ccccc1 (stereo not given)
    -1%	-8%	-8%
COc1ccc(OC)c(-c2nn(-c3ccccc3)cc2C(=O)N2CCc3ccccc3C2)c1
    -2%	-7%	-18%
O=C(NCC1CCCO1)c1cc2c(s1)CCC2 (stereo not given)
    28%	0%	47%[activator]
COC(=O)[C@]1(C)N[C@H](CN(C)S(=O)(=O)c2ccccc2)[C@@H]2C(=O)N(Cc3ccccc3)C(=O)[C@@H]21
    1%	0%	-20%
Nc1cccc2c1C(=O)N(CC(=O)NC13CC4CC(CC(C4)C1)C3)C2=O
    2%	1%	-23%
CCN(CC)C(=O)[C@H]1C[C@H](CC(=O)NCc2cccc(C(F)(F)F)c2)C(=O)N2CCc3c([nH]c4cc(CCC(=O)N(C)C)ccc34)[C@]12C
    6%	?	1%
COc1ccccc1CNC(=O)C(=O)NCC(c1ccco1)N1CCOCC1 (stereo not given)
    -2%	4%	-16%
COc1ccc(C(C)=O)cc1CS(=O)(=O)CC(=O)NCCc1c[nH]c2ccccc12
    -15%	-8%	-7%
CC(=O)c1ccc(N2CCN(C(C)C(=O)Nc3ccc4c(c3)OCCO4)CC2)cc1 (stereo not given)
    -3%	-3%	-16%
CCc1ccc(N(C(=O)c2csnn2)C(C(=O)NC(C)(C)CC)c2ccccn2)cc1 (stereo not given)
    12%	3%	-3%
